# KCNQ2 inh: KCNQ2 potassium channel inhibitors, primary screen, cell-based, CHO-K1, FluxOR thallium flux, B-score (AID 2156); O88943; 20 min; hits give low values; only compounds with negative scores are shown here; some inactives read as strong as hits; B-score at 10 µM; 1.1% of 310,000 active;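 active = fluorescence ratio B-score at most minus 3 library SDs, with starting brightness B-score within 2 library SDs, cut at about -5.5 in these data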
# Target sequence (O88943 whole entry, looked up): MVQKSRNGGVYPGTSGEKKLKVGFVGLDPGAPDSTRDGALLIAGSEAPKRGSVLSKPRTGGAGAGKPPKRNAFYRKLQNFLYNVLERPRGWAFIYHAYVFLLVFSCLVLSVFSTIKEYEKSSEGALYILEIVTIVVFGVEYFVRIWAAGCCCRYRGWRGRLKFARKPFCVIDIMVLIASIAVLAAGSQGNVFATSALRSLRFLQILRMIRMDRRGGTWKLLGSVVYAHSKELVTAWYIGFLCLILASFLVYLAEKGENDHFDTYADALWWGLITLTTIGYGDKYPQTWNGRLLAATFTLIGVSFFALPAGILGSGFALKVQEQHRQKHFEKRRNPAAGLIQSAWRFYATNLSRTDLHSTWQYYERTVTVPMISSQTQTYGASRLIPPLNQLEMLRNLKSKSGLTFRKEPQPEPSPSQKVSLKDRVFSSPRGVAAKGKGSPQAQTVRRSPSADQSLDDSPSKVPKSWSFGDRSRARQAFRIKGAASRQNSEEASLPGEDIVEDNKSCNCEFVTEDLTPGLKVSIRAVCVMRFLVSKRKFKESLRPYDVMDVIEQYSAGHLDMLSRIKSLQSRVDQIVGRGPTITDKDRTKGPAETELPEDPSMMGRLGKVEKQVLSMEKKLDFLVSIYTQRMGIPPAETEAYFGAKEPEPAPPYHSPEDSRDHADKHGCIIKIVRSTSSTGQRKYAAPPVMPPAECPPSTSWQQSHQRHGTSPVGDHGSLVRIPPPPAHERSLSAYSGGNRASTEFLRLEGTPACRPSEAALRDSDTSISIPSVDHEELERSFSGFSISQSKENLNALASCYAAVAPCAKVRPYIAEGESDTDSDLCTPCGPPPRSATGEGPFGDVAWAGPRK
# KCNQ2 inh baseline: second read-out of KCNQ2 inh, no call of its own (marks repeat the call); B-score; measured here: initial fluorescence intensity artifact check;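 brightness before thallium and not channel activity; 0 = typical well and far values either way flag optical interference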
# Numbers without * were called inactive; i = inactive.
KCNQ2 inh	KCNQ2 inh baseline	Molecule
i	1.48	Cc1ccc(N=CC2=C(O)CC(c3ccc(Cl)cc3)CC2=O)cc1 (stereo unspecified)
i	-0.18	O=C1NC(c2ccc(Cl)cc2)=COc2ccccc21
i	-0.68	CCC(C)(C(=O)NC1CCCC1)N(C(=O)CNC(=O)c1ccccc1)c1c(C)n(C)n(-c2ccccc2)c1=O (stereo unspecified)
i	2.71	Cc1cc(C(=O)O)ccc1NCc1cccnc1
i	-0.79	O=C(CN1CCC(O)(c2ccccc2F)CC1)NCCc1c[nH]c2ccccc12
i	-0.01	C=CCn1c(SCC(=O)Nc2sccc2C(N)=O)nc2ccccc2c1=O
i	2.81	CC(C)(CNC(=O)c1cccc(S(=O)(=O)Nc2ccc(Br)cc2)c1)N1CCOCC1
i	1.24	NC(N)=Nc1nc(-c2ccccc2)c2ccccc2n1
i	0.57	O=C(Nc1cccc2ccccc12)c1ccc([N+](=O)[O-])cc1
i	-0.76	CCCS(=O)(=O)c1c(S(=O)(=O)CCC)c2c(C)cccn2c1C(=O)N/N=C/c1cc(O)cc(O)c1
i	0.47	O=C(Nc1ccc2ncccc2c1)c1cc(Cl)ccc1Cl
i	-2.56	COc1ccccc1C(=O)COC(=O)c1c(-c2ccccc2)noc1C
i	-2.06	O=C(/C=C/c1cccc([N+](=O)[O-])c1)c1ccc2c(c1)OCCO2
i	-0.47	NS(=O)(=O)c1ccc(NC(=S)Nc2ccc(Br)c(Cl)c2)cc1
i	1.16	N#Cc1cn(Cc2cccc(Cl)c2)c2ccccc12
i	2.38	COC(=O)C(CCSC)NC(=O)c1cc2c(n(-c3ccccc3)c1=O)CCCC2=O (stereo unspecified)
-5.65*	1.99*	N#CC1=C(c2ccc(-c3ccccc3)cc2)COC1=O
i	-0.31	CC(c1nnc(SCC(=O)Nc2ccc3[nH]c(=O)[nH]c3c2)n1Cc1ccccc1)N(C)C (stereo unspecified)
i	0.03	O=C(N/N=C/c1ccc(Cl)cc1)c1cc(-c2cccnc2)nc2ccccc12
i	-1.5	Nc1ccc(C(=O)NCCCSc2ccccc2)cc1[N+](=O)[O-]
i	1.46	Cc1cccc(NC(=O)CS(=O)CC(=O)Nc2cnc3ccccc3c2)c1C (stereo unspecified)
i	-0.05	CN(C)CCCn1c(SCCN2C(=O)c3ccccc3C2=O)nc2ccccc2c1=O
i	0.51	Cc1nc2ccccc2c2c1C(=O)N(C1CCCCCCC1)C2=O
i	0.76	COCCCNC(=O)CS(=O)Cc1nc(-c2ccccc2C)oc1C (stereo unspecified)
i	-0.62	Cc1ccnc(NC(=O)C2COc3ccccc3O2)c1 (stereo unspecified)
i	0.49	CC(=O)c1cccc(NC(=O)N2CCCC2C(=O)Nc2ccc3c(c2)OCCO3)c1 (stereo unspecified)
i	0.44	CCNC(=O)NC(=O)COC(=O)C1CSC2(C)CCC(=O)N12 (stereo unspecified)
i	-1.02	Cc1cc(C)cc(NS(=O)(=O)c2c(C)[nH]c(=O)[nH]c2=O)c1
i	-1.25	CN(C)CCCN(C(=O)c1ccc2ccccc2c1)c1nc2cc3c(cc2s1)OCO3
i	-3.05	Cn1c(=O)c2cc(NC(=O)c3ccccc3Cl)c(=O)oc2n(C)c1=O
i	-2.95	O=C(N/N=C\c1ccc(-c2ccccc2[N+](=O)[O-])o1)C1COc2ccccc2O1 (stereo unspecified)
i	0.91	Cn1c(CNc2ccccc2O)nc2ccccc21
i	0.77	Cc1ccc2c(c1)c1c(n2CC(O)Cn2nc(C)c(Br)c2C)CCCC1 (stereo unspecified)
i	-0.14	CCOC(=O)C1=C(C)NC(=S)NC1c1ccc(OC(=O)c2ccco2)cc1 (stereo unspecified)
i	-0.99	CC(C)Cn1c(SCC(=O)N2CCCCC2)nc2ccccc2c1=O
i	1.06	C1CCN(Cc2nnnn2C2CCCC2)CC1
i	0.02	CN1CCN(C(=O)C2CCN(c3ncc(C(F)(F)F)cc3Cl)CC2)CC1
i	0.36	CC1=C(C(=O)N2CCOCC2)C(c2ccc(OC(F)F)cc2)NC(=S)N1c1ccccc1 (stereo unspecified)
i	0.96	CN1CCN(CC(=O)N/N=C\c2c[nH]c3ccccc23)CC1
i	2.69	COC(=O)c1ccc(C(=O)NC2CCCc3c2cnn3-c2cc(F)cc(F)c2)nc1 (stereo unspecified)
i	0.41	O=C(O)c1ccc(NCc2nc3ccccc3n2Cc2ccccc2F)cc1
i	0.31	COc1cc(CNc2nc3ccccc3s2)cc(OC)c1OC
i	2.85	Cc1cc(C)cc(NC(=O)N(C)Cc2ccccc2)c1
i	-0.25	O=C1c2ccccc2C(=O)N1CCc1nc(-c2ccncc2)no1
i	1.62	O=C1CCCc2ccccc2N1Cc1ccccc1Cl
i	-2.16	N#Cc1ccc2c(c1)nnn2-c1ccccc1
i	0.91	COc1ccc2c(c1OC)C(=O)OC2Nc1ncc(Br)cc1Br (stereo unspecified)
i	0.25	CC1CN(C(=O)c2cc(S(=O)(=O)N3CCCC3)ccc2Cl)CC(C)O1 (stereo unspecified)
i	3.7	C/C(=N\NC(=O)COc1cccc2ccccc12)c1cccs1
i	0.01	Cc1cccnc1NC(=O)c1ccc2c(c1)OCCO2
i	0.49	CCN(C(=O)COc1nc(C)cc(C)c1C#N)c1ccccc1
i	0.62	CCC1(C)Cc2c(sc3nc(NC)n(C)c(=O)c23)CO1 (stereo unspecified)
i	-1.39	Cc1ccc(C)c(N(CC(=O)Nc2cc(Cl)ccc2Oc2ccccc2)S(C)(=O)=O)c1
-8.26*	-0.61*	O=C(/C=C/c1ccc(Cl)cc1)N(Cc1ccccc1)c1ccccn1
i	-0.71	COC(=O)c1[nH]c2ccccc2c1NC(=O)/C=C/c1ccc2c(c1)OCO2
i	0.01	O=C(OC1CCN(c2ccc([N+](=O)[O-])cc2)CC1)c1ccccc1
i	-0.23	C=CCn1c(SCC(=O)Nc2ccc3c(c2)OCO3)nnc1-c1ccccc1O
i	0.01	CC1=C(C(=O)OCc2ccccc2)C(c2ccccc2OS(=O)(=O)c2ccc([N+](=O)[O-])cc2)NC(=O)N1CCCC(=O)O (stereo unspecified)
i	0.1	Cc1cccc(NC(=O)CC2(CC(=O)O)CCCC2)c1
i	1.77	Cc1cc(C)nc(CCNC(=O)CC2C(=O)NCCN2Cc2ccccc2)n1 (stereo unspecified)

# More structures:
KCNQ2 inh	KCNQ2 inh baseline	Molecule
i	1.46	O=C(OCCN1CCCCC1)c1ccccc1Br
i	-0.47	O=C(Cc1cccs1)Nc1ccc(F)cc1
i	0.66	Cc1cc(NC(=O)CSc2nc3sc(C)c(C)c3c(=O)n2C2CCCC2)no1
i	2.71	Cc1ccc(S(=O)(=O)N2CCOCC2)cc1C(=O)Nc1ccccn1
i	-0.91	O=C(Cn1c(C(=O)NCc2ccco2)cc2sccc21)c1ccccc1
i	0.96	COc1cccc(-c2n[nH]c(=S)n2Cc2ccco2)c1OC
i	-1.15	CSc1nc(N)c(C#N)c(-c2ccc(Cl)cc2)c1C#N
i	1.18	Cc1cccc(NC(=O)CSc2nnc(-c3cnccn3)n2Cc2ccco2)c1
i	0.22	CN(CC(=O)Nc1ccc(Cl)cc1)C(=O)c1cccc(S(=O)(=O)NCc2ccccc2)c1
i	-0.98	Cn1c(=O)n(C)c2cc(CNc3ccc(N4CCOCC4)c(C(=O)O)c3)ccc21
i	2.37	O=C(/C=C1\NCC2c3ccccc3CCN2C1=O)c1ccccc1 (stereo unspecified)
i	0.71	Nc1nc(NC(=O)/C=C\C(=O)O)nn1-c1ccccc1
i	0.08	CSC(C1CCCC1)n1nnc2ccccc21 (stereo unspecified)
i	1.32	CCCCOC(=O)CSc1n[nH]c(=O)[nH]c1=O
i	-1	O=C(O)Cc1ccc(NC(=O)Nc2ccc3c(c2)OCO3)cc1
i	29.3	c1ccc2[nH]c3cc4ncnc4cc3nc2c1
i	-1.99	CCc1cc(C(=O)N2CCCC(C(=O)c3cccc(OC(C)C)c3)C2)n(C)n1 (stereo unspecified)
i	-0.01	Cn1c(=O)c(N=O)c(N)n(Cc2ccccc2)c1=S
i	0.22	COc1cccc(C2=CC(c3ccccc3)n3nnnc3N2)c1 (stereo unspecified)
i	1.54	CC(C)OP(=O)(c1ccc(N(C)C)cc1)C(O)c1c(Cl)cccc1Cl (stereo unspecified)
i	0.61	c1ccc2c(c1)Cn1nc(Cc3nc4c(s3)CCCC4)nc1-2
i	-0.76	COc1ccc(NC(=O)CN(C)C(=O)c2cccc(NS(=O)(=O)c3ccc(Br)cc3)c2)cc1
i	-0.98	Cc1ccc(S(=O)(=O)N(C(=O)c2ccncc2)c2ccc(OC(=O)c3ccncc3)cc2)c(C)c1
i	-0.02	O=C(CC(c1ccccc1)c1ccccc1)Nc1ccc(Cl)cn1
i	-1.9	CC(C)(C)OC(=O)N1CCC(c2c(C(=O)N3CCN(C4CCCCC4)CC3)cnn2-c2ccc(F)cc2)CC1
i	-0.25	COC(=O)c1ccc(NC(=O)c2cnc3scc(C)n3c2=O)cc1
i	-0.79	O=C(Cc1ccc(Cl)cc1)Nc1ccccc1C(=O)N1CCCCC1
i	1.01	CCOC(=O)N1CCN(C(=S)NC2CCCC2)CC1
i	-0.05	Cn1c(=O)c2c(nc(SCCCC#N)n2Cc2ccccc2F)n(C)c1=O
i	0.95	CCOc1ccc(N(C)S(=O)(=O)c2cc(-c3cc(C)no3)ccc2CC)cc1
i	0.06	CN1CCc2c(sc(NC(=O)c3cc(Cl)sc3Cl)c2C(N)=O)C1
i	0.92	COC(=O)C(C)C1Sc2ccccc2NC1=O (stereo unspecified)
i	3	O=S(=O)(NCC1(N2CCOCC2)CCCCC1)c1ccc(F)cc1
i	-2.21	CCC/C=C1/CCCOC(C(=O)NCc2ccccc2)(C(F)(F)F)C1 (stereo unspecified)
i	-0.64	COCn1c(COc2ccc3ccccc3c2)nc2ccccc21
i	-0.19	CC(C)C(c1nnnn1C1CCCCC1)N1CCN(c2ncccn2)CC1 (stereo unspecified)
i	0.81	COC(=O)c1ccc(NC(=O)CSc2nnc(-c3cccnc3)o2)cc1
i	-0.23	O=C(COc1ccc([N+](=O)[O-])cc1)NN=C1CCCC1
i	-0.5	O=C(Nc1ccccn1)c1ccc2ccccc2n1
i	0.18	Cc1ccc(-c2nnn(CC(=O)Nc3ccccc3-c3ccccc3)n2)c(-n2cnnn2)c1

# Part of the list above, with each value named.
mol: CC(C)C(c1nnnn1C1CCCCC1)N1CCN(c2ncccn2)CC1 (stereo unspecified)
  KCNQ2 inh: i
  KCNQ2 inh baseline: -0.19
mol: COC(=O)c1ccc(NC(=O)CSc2nnc(-c3cccnc3)o2)cc1
  KCNQ2 inh: i
  KCNQ2 inh baseline: 0.81
mol: O=C(COc1ccc([N+](=O)[O-])cc1)NN=C1CCCC1
  KCNQ2 inh: i
  KCNQ2 inh baseline: -0.23

# New compounds follow.
KCNQ2 inh	KCNQ2 inh baseline	Molecule
i	2.37	Cc1ccc(/C=C/C(=O)O)cc1S(=O)(=O)N1CCC(Cc2ccccc2)CC1
i	-0.42	COC(=O)CCC(=O)OC1(C)C(=O)C=C2C=C(C3CC3)N(c3ccccc3)C=C2C1=O (stereo unspecified)
i	0.3	Cc1ccc(C(=O)N/C(=C/c2ccc(Cl)cc2)C(=O)NCC2CCCO2)cc1 (stereo unspecified)
i	0.02	CC(c1ccccc1)c1nnc(N)s1 (stereo unspecified)
i	0.53	Clc1ccccc1-c1nnc2sc(-c3ccc(Br)o3)nn12
i	2.73	COc1ccc(/C=C/C(=O)Oc2cc(C)[nH]c(=O)c2[N+](=O)[O-])cc1OC
i	1.9	CCCc1nc2c(=O)n(C)c(=O)[nH]c2n1C
-7.42*	-0.63*	CC1=CC(C)(C)Nc2ccc(OC(=O)C(Cc3ccccc3)N3C(=O)C4CCCCC4C3=O)cc21 (stereo unspecified)
i	1.41	NS(=O)(=O)c1ccc(CCNC(=O)c2ccc(Cl)cc2[N+](=O)[O-])cc1
i	1.56	Cc1cc(C)c2c(N=NN3CCCCC3)[nH]nc2n1
i	2.45	Cc1nc(SCC(=O)N2CCCc3ccccc32)c2oc3ccccc3c2n1
i	-1.07	COc1ccccc1NC(=O)N1CCN(c2cccc(C(F)(F)F)c2)CC1
i	-0.06	O=C(O)c1cc(Cl)c2c(c1)OCO2
i	0.12	Cc1ccc(C(=O)OCC(=O)N(CC(C)C)c2c(N)n(Cc3ccccc3)c(=O)[nH]c2=O)o1
i	0.12	O=C(CN(c1ccccc1)S(=O)(=O)c1ccccc1)Nc1ccccc1C(=O)NCc1ccco1
i	1.43	Cc1ccc(NC2=C(Cl)C(=O)OC2OC(=O)c2ccccc2)c(C)c1 (stereo unspecified)
i	0.49	Cc1ccc(OCC(O)CN2CCN(CC(O)COc3ccc(C)cc3)CC2)cc1 (stereo unspecified)

# Of the compounds above, 13 contain an aryl thioether with sulfur outside any ring:
KCNQ2 inh	KCNQ2 inh baseline	Molecule
i	-0.01	C=CCn1c(SCC(=O)Nc2sccc2C(N)=O)nc2ccccc2c1=O
i	-0.31	CC(c1nnc(SCC(=O)Nc2ccc3[nH]c(=O)[nH]c3c2)n1Cc1ccccc1)N(C)C (stereo unspecified)
i	-1.5	Nc1ccc(C(=O)NCCCSc2ccccc2)cc1[N+](=O)[O-]
i	-0.05	CN(C)CCCn1c(SCCN2C(=O)c3ccccc3C2=O)nc2ccccc2c1=O
i	-0.99	CC(C)Cn1c(SCC(=O)N2CCCCC2)nc2ccccc2c1=O
i	-0.23	C=CCn1c(SCC(=O)Nc2ccc3c(c2)OCO3)nnc1-c1ccccc1O
i	0.66	Cc1cc(NC(=O)CSc2nc3sc(C)c(C)c3c(=O)n2C2CCCC2)no1
i	-1.15	CSc1nc(N)c(C#N)c(-c2ccc(Cl)cc2)c1C#N
i	1.18	Cc1cccc(NC(=O)CSc2nnc(-c3cnccn3)n2Cc2ccco2)c1
i	1.32	CCCCOC(=O)CSc1n[nH]c(=O)[nH]c1=O
i	-0.05	Cn1c(=O)c2c(nc(SCCCC#N)n2Cc2ccccc2F)n(C)c1=O
i	0.81	COC(=O)c1ccc(NC(=O)CSc2nnc(-c3cccnc3)o2)cc1
i	2.45	Cc1nc(SCC(=O)N2CCCc3ccccc32)c2oc3ccccc3c2n1

# Screens deposited in PubChem BioAssay by Johns Hopkins Ion Channel Center.

# The list is partial (hit frequency here may not be typical).
